Assay outcomes deposited in PubChem BioAssay by several laboratories.
CBX7 AlphaScr – CBX7 chromodomain binding inhibitors, primary screen, biochemical, AlphaScreen; Chromobox protein homolog 7 (Homo sapiens), O95931; AlphaScreen His6-CBX7 / biotin-H3K27me3 peptide binding; hits give low values; normalised signal (fraction of DMSO) (test concentration not listed); hit rate 1.1% among 66,000; in the data active = normalised signal below about 0.5;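 also: 100 nL library stock added to about 20 µL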
Target sequence (O95931 whole entry, looked up): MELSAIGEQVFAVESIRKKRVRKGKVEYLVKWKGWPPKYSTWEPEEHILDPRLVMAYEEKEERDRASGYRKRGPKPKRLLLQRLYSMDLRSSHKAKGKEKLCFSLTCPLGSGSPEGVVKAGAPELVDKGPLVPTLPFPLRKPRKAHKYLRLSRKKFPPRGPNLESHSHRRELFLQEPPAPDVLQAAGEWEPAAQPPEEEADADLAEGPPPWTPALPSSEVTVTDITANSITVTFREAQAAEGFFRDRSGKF
CBX7 AlphaScr z-score – further read-out of CBX7 AlphaScr, marked with its call; z-score; measured here: z-score of CBX7 signal; some inactives read as strong as hits; reference of the scale not given here;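 same signal on another scale; lower means less binding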
Active calls of the source: *; & = joins results of further samples.

Sample of the layout, 6 compounds:
Results follow in this order: CBX7 AlphaScr | CBX7 AlphaScr z-score
Cc1ccc(NC(=O)Cn2cc(S(=O)(=O)c3ccc(Cl)cc3)c(=O)c3cc(C)ccc32)cc1
  0.933 | -2.2
COc1cccc2cc(-c3nc4ccccc4[nH]3)c(=O)oc12
  1.04 | 1.06
COc1ccc(NC(=O)c2oc3ccc(S(=O)(=O)N4CCCCC4)cc3c2C)cc1
  1.01 | 0.698
COCCn1c(SCC(=O)Nc2ccc(Cl)cc2)nnc1-c1c[nH]c2ccccc12
  1.11 | 0.693
Clc1ccc(Nc2nc(-c3ccncc3)cs2)cc1
  0.998 | -0.024
COc1ccccc1Nc1nc(Cc2ccccc2)nc2sc3c(c12)CCCC3
  1.11 | 4

This part in full, from the first entry:
Results follow in this order: CBX7 AlphaScr | CBX7 AlphaScr z-score
Cc1ccc(NC(=O)Cn2cc(S(=O)(=O)c3ccc(Cl)cc3)c(=O)c3cc(C)ccc32)cc1
  0.933 | -2.2
COc1cccc2cc(-c3nc4ccccc4[nH]3)c(=O)oc12
  1.04 | 1.06
COc1ccc(NC(=O)c2oc3ccc(S(=O)(=O)N4CCCCC4)cc3c2C)cc1
  1.01 | 0.698
COCCn1c(SCC(=O)Nc2ccc(Cl)cc2)nnc1-c1c[nH]c2ccccc12
  1.11 | 0.693
Clc1ccc(Nc2nc(-c3ccncc3)cs2)cc1
  0.998 | -0.024
COc1ccccc1Nc1nc(Cc2ccccc2)nc2sc3c(c12)CCCC3
  1.11 | 4
CCOc1ccc(NC2c3ccccc3C(=O)N2c2ccccc2C)cc1 (configuration not stated)
  0.925 | -2.47
O=C(CC1Sc2ccc(C(F)(F)F)cc2NC1=O)Nc1ccccc1SC(F)(F)F (configuration not stated)
  1.08 | 1.68
CC(=O)c1sc(Nc2ccc3c(c2)OCO3)nc1C
  1.02 | 0.655
Fc1ccccc1-c1nnc2ccc3ccccc3n12
  0.977 | -0.608

Record cards, as listed above. Order of screens: CBX7 AlphaScr, CBX7 AlphaScr z-score
Listed for COCCn1c(SCC(=O)Nc2ccc(Cl)cc2)nnc1-c1c[nH]c2ccccc12 → 1.11, 0.693
Listed for COc1ccc(NC(=O)c2oc3ccc(S(=O)(=O)N4CCCCC4)cc3c2C)cc1 → 1.01, 0.698
Listed for COc1ccccc1Nc1nc(Cc2ccccc2)nc2sc3c(c12)CCCC3 → 1.11, 4
Listed for Fc1ccccc1-c1nnc2ccc3ccccc3n12 → 0.977, -0.608
Listed for COc1cccc2cc(-c3nc4ccccc4[nH]3)c(=O)oc12 → 1.04, 1.06

Continuation.
Results follow in this order: CBX7 AlphaScr | CBX7 AlphaScr z-score
Cc1ccc(-c2cc(C(=O)N3CCN(C/C=C/c4ccccc4)CC3)c3ccccc3n2)cc1
  0.894 | -0.371
C(=C/c1ccccc1)/CN1CCN(c2nc(-c3ccccc3)cs2)CC1
  1 | 0.0539
O=C(NCc1ccc2c(c1)OCO2)C1CCN(S(=O)(=O)c2cccnc2)CC1
  1.04 | 1.23
CN(C(=O)Cn1nc(Cc2ccncc2)c2ccccc2c1=O)c1cccc(Cl)c1
  0.997 | -0.116
CCOc1ccc(NC(=O)CSc2nccn2-c2cc(C)cc(C)c2)cc1
  0.993 | -0.0066
c1ccc(CCCNc2ccc3nncn3n2)cc1
  0.991 | -0.248
O=C(CN1C(=O)CCSc2ccccc21)NCCN1CCOCC1
  0.996 | -0.171
CCc1ccc(-c2cn(-c3ccc(Br)cc3)c(=O)[nH]2)cc1
  0.982 | -0.524
CCCc1nc2ccccc2n1CC(O)COc1ccc(Br)cc1 (configuration not stated)
  0.963 | -0.926
Cc1ccc(C(=O)Nc2ccc3oc(-c4ccncc4)nc3c2)c(Cl)c1
  1.02 | 0.304
O=S(=O)(c1cccc2nsnc12)N(CCOc1cccc2ccccc12)C1CCCCC1
  0.787 | -4.12
COc1cccc(CNc2nc3ccccc3n2CCN2CCOCC2)c1O
  1.03 | 1.16
Cc1ccc(-c2nnc(Nc3cccc(O)c3)c3ccccc23)cc1S(=O)(=O)NCC1CCCO1 (configuration not stated)
  0.646 | -3.99
O=C(NCc1ccccn1)c1ccc2c(c1)N(Cc1ccccc1F)C(=O)c1ccccc1S2(=O)=O
  0.987 | -0.371
CC(C)(C)C(=O)NCc1nc2ccccc2n1Cc1c(F)cccc1Cl
  1.24 | 2.45
COCCNC(=O)c1csc2c1CCCCC2
  1.07 | 0.264
O=C(Nc1ccc2c(c1)OCO2)[C@H](Cc1ccccc1)N1Cc2ccccc2C1=O
  0.417* | -1.63*
Cc1ccc(NC(=O)Cn2c(SCc3cccc(F)c3)nc3ccncc32)cc1C
  0.975 | -0.645
CCCCOc1ccc(C(C)(O)C(CN2CCN(C3CCCCC3OC)CC2)c2ccccc2)cc1 (configuration not stated)
  0.739 | -0.731
O=C(Cn1c(SCc2cccc(F)c2)nc2ccncc21)NCC1CCCO1 (configuration not stated)
  0.971 | -0.753
O=c1c(-c2ccc(Cl)cc2)c(C(F)(F)F)oc2c(CN3CCOCC3)c(O)ccc12
  1.15 | 2.97
CCCCc1c2c(nn1-c1cc(Cl)ccc1OC)CCCC2=O
  1.12 | 1.14
CCC(C)NC(=O)c1ccc2c(c1)N(Cc1cccc(Cl)c1)C(=O)CS2 (configuration not stated)
  1.09 | 2.03
COc1ccc(NC(=O)CS(=O)(=O)Cc2nc(-c3ccc(C)cc3)oc2C)cc1
  1.08 | 0.173
CCOc1ccc(N(CC)C(=O)Cn2ncc3c2-c2cc(C)ccc2OC3)cc1
  0.97 | -0.802
Cc1cc(C)cc(NC(=O)c2sc3ncn(Cc4ccccc4F)c(=O)c3c2C)c1
  1.04 | 0.242
Cn1c2ccccc2c2c(C(=O)NCCC3=CCCCC3)cn(C3CCCC3)c(=O)c21
  0.995 | -0.15
Cc1ccc(S(=O)(=O)c2nc(-c3ccccc3)n3c2SCC3)cc1
  0.834 | -1.59
CS(=O)(=O)N1CCC(C(=O)NCc2ccc(F)cc2Cl)CC1
  1.03 | 0.477
CCc1ccc(C2NCCc3cc4c(cc32)OCCO4)cc1 (configuration not stated)
  1.1 | 1.71
COc1ccc(CNC(=O)c2cc3nc(-c4ccc(OC)c(OC)c4)cc(C(F)(F)F)n3n2)cc1
  1.12 | 4.09
CCn1cc(CNC(=O)c2cc(-c3cc(C)ccc3C)nc3ccc(Br)cc23)cn1
  0.962 | -0.494
CCOc1ccc(NC(=O)COc2nsnc2N2CCOCC2)cc1
  1.04 | 0.698
COc1ccc2nc(NC(=O)CCc3nc(-c4ccc(C)cc4)no3)sc2c1
  0.972 | -0.0377
COCCn1c(=O)[nH]c2cc(C(=O)NCCc3ccccc3)ccc2c1=O
  0.977 | -0.809
O=S(=O)(c1ccc(Cl)cc1)c1nc(-c2ccccc2F)oc1N1CCCCCC1
  0.692 | -8.14
COc1ccc(NC(=O)CSc2nnc(-c3ccncc3)n2-c2ccccc2)cc1
  1.08 | 2.39
CC(C)(C)c1ccc2c(c1)N(CC(=O)NCc1cccnc1)C(=O)CO2
  0.969 | -0.532
COc1ccc(N2CCN(C(=O)c3ccc4c(c3)NC(=O)c3ccccc3N4)CC2)cc1
  1.06 | 0.486
O=C(C1CCC1)N1CCc2cc(S(=O)(=O)Nc3ccc(Cl)cc3)ccc21
  0.976 | -0.8

(cont.)
Structure	CBX7 AlphaScr	CBX7 AlphaScr z-score
COc1cccc(Cn2cc(S(=O)(=O)c3ccc(C)cc3)c(=O)c3cc(OC)ccc32)c1	0.931	-2.6
CCOC(=O)c1cnc2c(OC)cccc2c1N1CCN(c2ccccc2F)CC1	0.425*	-0.646*
COCCN(CCOC)S(=O)(=O)c1ccc(C(=O)Nc2nnc(-c3ccccc3Cl)o2)cc1	0.265*	-3.23*
COC(=O)C1=C(C)NC(=O)NC1c1cc(OC)c(OC)cc1OC (configuration not stated)	0.861	-1.5
CCc1ccc(-c2nc(CN3CCC(C(=O)NCc4ccc(F)cc4)CC3)c(C)o2)cc1	0.938	-0.0843
Cc1cc2nc(Cc3ccccc3Br)c(=O)[nH]c2cc1C	0.986	-0.423
O=S(=O)(Nc1nccs1)c1ccc(Nc2nnc(-c3ccccc3)c3ccccc23)cc1	0.0457*	-1.3*
CC1(C)CC(=O)c2sc(NC(=O)CSc3nc4ccccc4[nH]3)nc2C1	1.06	0.654
COc1ccc(CCNC(=O)c2csc3c2CCCCC3)cc1OC	1.04	1.58
COc1ccc(CC(=O)Nc2c3c(nn2-c2ccc(C)cc2C)CSC3)cc1OC	1.03	1.38
CCCCc1ccc(NC(=O)c2cc3c(n(-c4ccc(C)cc4)c2=O)CC(C)(C)CC3=O)cc1	1.07	2.15
COc1cccc(NC(=O)C(=O)NCc2cccnc2)c1	0.967	-0.896
CC(=O)N1CCc2cc(S(=O)(=O)N3CCN(c4cc(Cl)ccc4C)CC3)ccc21	0.993	-0.232
COc1ccc(OC(C)c2nc(-c3ccc(OC)cc3)no2)cc1 (configuration not stated)	1.26	9.43
COc1ccc2nc(SCC(=O)Nc3nonc3NC(C)=O)[nH]c2c1	1.06	0.916
CCOC(=O)c1cc(-c2ccc(OC)cc2)n(CCC(=O)NCc2cccs2)c1C	0.909	-2.17
O=C(O)c1c2c(nc3ccccc13)CCN(S(=O)(=O)c1ccc(Cl)cc1)C2	0.885	-1.32
CCCCCCCCCCOc1ccc(NC(=O)Nc2ccccc2C)cc1	1.11	1.22
Cc1ccc(Nc2c(-c3ccc(N(C)C)cc3)nc3ccc(Br)cn23)cc1	0.859	-1.44
CCN(CC)S(=O)(=O)c1ccc2c(c1)N(CC(=O)NC1CCCC(C)C1C)C(=O)CO2 (configuration not stated)	1.1	1.63
Cc1cccc(NS(=O)(=O)c2ccc3c(c2)CCN3C(=O)C2CC2)c1C	0.95	-1.19
Cc1cccc(N2CCN(C(=O)C3CCC(Cn4c(=O)[nH]c5ccsc5c4=O)CC3)CC2C)c1 (configuration not stated)	1.11	0.523
CC1CC(=O)Nc2ccc([N+](=O)[O-])cc2N1CC(F)(F)F (configuration not stated)	1.05&1.03	1.27&0.143
Cc1ccc(C)c(NC2c3ccccc3C(=O)N2c2ccc(Cl)cc2)c1 (configuration not stated)	0.94	-1.61
Cc1ccc(-c2n[nH]c(=O)c3ccccc23)cc1S(=O)(=O)N1CCCC1	1.16	1.4
CCC(Cc1ccccc1)NC(=O)C1CCN(S(=O)(=O)c2ccc3c(c2)CCC(=O)N3)CC1 (configuration not stated)	1.02	0.24
O=C(Nc1cccc(-c2nc3ccccc3o2)c1)c1cccnc1	0.968	-0.645
O=C(Nc1ccc(-c2nc3ccccc3s2)c(O)c1)c1ccc(F)cc1	1	0.0208
Cc1ccc(-c2noc(CCC(=O)N(C)c3cc(Cl)ccc3C)n2)cc1	1.2	1.92
CCN(CC)CCCNC(=O)c1cnn2c(C)c(Cc3c(F)cccc3Cl)c(C)nc12	1	0.0877
CCOC(=O)CN1CC23C=CC(O2)C(C(=O)NCc2ccc(OC)cc2)C3C1=O (configuration not stated)	0.991	-0.28
COCCNC(=O)CSc1nc(-c2ccccc2)[nH]c1-c1ccc(Cl)cc1	0.934	-1.75
COc1ccccc1NC(=O)c1cnc2ccccn2c1=O	0.825	-2.49
CC1CC(C)CN(C(=O)c2ccc3c(c2)N(Cc2cccc(F)c2)C(=O)c2ccccc2S3)C1 (configuration not stated)	0.835	-4.6
Cc1cc(Nc2ccc(C(=O)O)cc2)n2ncnc2n1	0.948	-1.01
COc1ccc(OC)c(CN2C(=O)c3ccccc3C2C(=O)NC2CCCCCC2)c1 (configuration not stated)	0.893	-0.378
Cc1ccc(C)c(NC(=O)CSc2nnc(CNC(=O)c3ccccc3F)o2)c1	1.02	0.556
Cc1nn(-c2ccc(C(=O)O)cc2)c(=O)c2ccccc12	1	0.056
CCOC(=O)CNC(c1ccccc1)c1cc(Br)ccc1NC(=O)c1ccc(Cl)cc1 (configuration not stated)	0.929	-0.309
Cc1oc(-c2cccc(Cl)c2)nc1CN1CCCC(C(=O)NC(C)C)C1 (configuration not stated)	0.812	-2.25
O=C(CSc1nnc(C2COc3ccccc3O2)o1)NC1CCCCC1 (configuration not stated)	1.09	0.58
CC1CCCC(C)N1CCCNC(=O)C1c2ccccc2C(=O)N1Cc1ccc2c(c1)OCO2 (configuration not stated)	0.925	-0.864
Cc1cc(C)cc(N2C(=O)C3C(C2=O)C2C=CC3C23CC3)c1 (configuration not stated)	1.02	0.26
O=C(Nc1ccccc1Cl)Nc1cccnc1Cl	0.964	-0.961
COc1cc(-c2nc3sc4c(c3c(=O)[nH]2)CCCC4)ccc1OCCOc1cc(C)ccc1C(C)C	1.05	1.16
Cc1ccccc1NC(=O)CC1Sc2ccc(C(F)(F)F)cc2NC1=O (configuration not stated)	0.921	-1.48
COc1cccc(Nc2nc(-c3ccc(OC)c(Br)c3)cs2)c1	0.7&0.507	-4.13&-8.51
CC(CNC(=O)c1cc2c(s1)CS(=O)(=O)C2)c1ccccc1 (configuration not stated)	1.02	0.816
OC(CN1CCCCC1)Cn1c2ccccc2c2ccccc21 (configuration not stated)	0.865	-2.14
CCOc1ccc2c(=O)c(-c3ccc(OC)c(OC)c3)c(C(F)(F)F)oc2c1	0.984	-0.347
CC1CCCCC1NC(=O)C1c2cccn2CC(=O)N1CCc1ccccc1 (configuration not stated)	1.03	0.569
CCC1=Nc2cc(C(=O)NCCCc3ccccc3)ccc2Sc2ccc(C)cc21	0.977	-1.18
Cc1ccc(S(=O)(=O)NCc2ccccn2)cc1C	1.08	3.44
CCCCCCc1c(O)nc(SCC(=O)O)[nH]c1=O	1.11	1.71
Cc1ccc(-n2c(Cc3cccn3C)nnc2SCC(=O)NCC2CCCO2)cc1 (configuration not stated)	1.04	0.857
Cc1c(C(=O)NCc2cccnc2)sc2ncn(CC(=O)N3CCC(C)CC3)c(=O)c12	1.01	0.295
Cc1cc(C)cc(Nc2cc(C(=O)NCCN3CCOCC3)c3ccccc3n2)c1	1.17	4.68

A portion of the library; count on the stated rates, not on these rows.
